High-throughput results (PubChem BioAssay)
Beta2AR agonist – beta2AR agonists driving receptor internalization, primary screen, cell-based, FAP fluorogen, flow cytometry; Beta-2 adrenergic receptor (Homo sapiens), P07550; Am2.2-beta2AR cells; reference of the scale not given here; response, % (test concentration not listed); 340,000 tested, 0.43% active;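 active = response above a set limit, near 3 SD of response in nonfluorescent compounds, cut at about 42% in these data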;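 note: stock transfer was 100 nL into about 11 µL; a reference agonist was the positive control; negative values mostly stem from fluorescent compounds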
Target sequence (P07550 whole entry, looked up): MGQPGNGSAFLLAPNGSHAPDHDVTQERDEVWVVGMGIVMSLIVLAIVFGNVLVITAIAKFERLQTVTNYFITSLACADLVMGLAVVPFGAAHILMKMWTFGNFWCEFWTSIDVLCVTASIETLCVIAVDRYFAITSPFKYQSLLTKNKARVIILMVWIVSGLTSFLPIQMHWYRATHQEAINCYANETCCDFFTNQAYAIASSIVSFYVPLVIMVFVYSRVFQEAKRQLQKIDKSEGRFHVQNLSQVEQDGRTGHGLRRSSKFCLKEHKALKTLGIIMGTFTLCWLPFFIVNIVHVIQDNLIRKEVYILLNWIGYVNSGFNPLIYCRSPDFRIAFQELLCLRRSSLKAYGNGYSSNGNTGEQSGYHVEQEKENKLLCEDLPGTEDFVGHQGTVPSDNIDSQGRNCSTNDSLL
Vif A3G – inhibitors of Vif binding to APOBEC3G peptide, primary screen, biochemical, TR-FRET, GST-Vif 1-94, biotin-A3G peptide, dose response retest (AID 1117319); TR-FRET GST-Vif / biotin-A3G peptide binding; higher % means a stronger effect; test concentration not given here; strong numbers were not always called active; 260,000 tested, 0.57% active; inhibition, %, or IC50 in µM where a hit was titrated;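 active = above the screen mean plus three standard deviations and confirmed in dose response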;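 note: Vif residues 1-94 fused to GST binding biotinylated APOBEC3G peptide 110-148; 0% = full assay without inhibitor and 100% = GST in place of GST-Vif; retest series ran down from 100 µM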
HNF4A DNA FP – change in binding of human HNF4A to DNA, primary screen, biochemical, fluorescence polarization, FITC-DNA; Hepatocyte nuclear factor 4-alpha (Homo sapiens), P41235; 1 h; activity change, % at 10 µM; 360,000 tested, 0.3% active; AID 1224865, 2016; in the data active = activity change above about 30%, passing the limit was not always enough;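 note: controls were the assay level and a saturating level of protein; the project sought stronger binding though the title names inhibitors; some compounds called inactive have numbers as strong as hits; positive values seem to mean higher polarization but the record does not say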
Target sequence (P41235 whole entry, looked up): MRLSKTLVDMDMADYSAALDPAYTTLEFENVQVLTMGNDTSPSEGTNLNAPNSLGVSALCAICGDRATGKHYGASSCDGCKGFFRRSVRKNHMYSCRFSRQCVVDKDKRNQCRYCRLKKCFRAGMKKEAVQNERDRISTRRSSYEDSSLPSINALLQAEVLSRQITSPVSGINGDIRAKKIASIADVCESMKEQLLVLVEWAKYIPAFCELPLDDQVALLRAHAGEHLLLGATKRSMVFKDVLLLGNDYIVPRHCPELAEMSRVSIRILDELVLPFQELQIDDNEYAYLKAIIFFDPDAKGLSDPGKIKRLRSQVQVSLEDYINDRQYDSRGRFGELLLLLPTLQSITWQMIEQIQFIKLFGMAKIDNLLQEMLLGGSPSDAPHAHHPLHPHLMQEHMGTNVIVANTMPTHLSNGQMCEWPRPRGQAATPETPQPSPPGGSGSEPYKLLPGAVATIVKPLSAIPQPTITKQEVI
Numbers without * were called inactive. Some of the compounds tested; the hit share may differ from the screen's.

Results for CN(C)CCCNc1nc2cc(-c3ccccc3)sc2c(=O)n1C ?
HNF4A DNA FP: 1.3

What do the screens show for `COC(=O)[C@@]12C[C@@H](CC(=O)NCc3cccs3)C(=O)N(CCc3ccc(OC)c(OC)c3)C1=CCC(C)(C)C2`?
HNF4A DNA FP: 2.6

How did O=C(N[C@H]1CC[C@@H](CCNS(=O)(=O)c2ccccc2Cl)O[C@@H]1CO)c1ccccc1 do in these assays?
HNF4A DNA FP: -2.8

How did CC(=O)Nc1ccc(-c2ccnc3c2CC(C(=O)Nc2ccccc2)O3)cc1 (stereo unspecified) do in these assays?
HNF4A DNA FP: -3.9

What do the screens show for `CC(N)C(=O)NC(C(=O)NC(C)C(=O)Nc1cccc2ccccc12)C(C)C` (stereo unspecified)?
HNF4A DNA FP: 1.9

Results for C[C@H](O)[C@@H]1CN2CCc3c([nH]c4ccccc34)[C@@H]2C[C@@H]1N(C)C(=O)OCc1ccccc1 ?
HNF4A DNA FP: -30

How did COc1ccc(CNC(=O)c2sc(=O)n(Cc3ccc(C)cc3)c2C)cc1 do in these assays?
HNF4A DNA FP: 8.7

What do the screens show for `Cc1noc(C)c1C(=O)N1CCC1(C)C(=O)NS(=O)(=O)c1ccc(F)cc1F` (stereo unspecified)?
HNF4A DNA FP: 0.4

Results for NC(=O)/C(=C\c1ccc([N+](=O)[O-])o1)c1ccco1 ?
HNF4A DNA FP: 4.4

What do the screens show for `CN(CC(=O)Nc1ccc(Cl)c(Cl)c1)C(=O)c1ccccc1SCC(=O)N1CCCC1`?
HNF4A DNA FP: -1.4

What do the screens show for `CCc1nc2c(OCc3ccc(Cl)cc3)cccn2c1N(C=O)Cc1ccc(OC)cc1`?
HNF4A DNA FP: -1.6

How did CC(C)C[C@@H]1Cc2[nH][nH]c(=O)c2[C@H](C(C)C)O1 do in these assays?
HNF4A DNA FP: -2.1

What do the screens show for `CC(C)CC(N)c1csc(Nc2ccc(S(C)(=O)=O)cc2)n1` (stereo unspecified)?
HNF4A DNA FP: -0.6

How did COC(=O)c1cc(=O)nc(NN=C2CCCCC2)s1 do in these assays?
HNF4A DNA FP: 2.7

Results for CC(C)Oc1cc(F)ccc1-c1cc(C(=O)NC2CCCCC2)[nH]n1 ?
HNF4A DNA FP: -0.9

How did CC(=O)NC(c1cccc(F)c1)c1nc(-c2cccc(C(=O)O)c2)cs1 (stereo unspecified) do in these assays?
HNF4A DNA FP: 1.8

How did CC1=C(C(=O)N(C)C)CC(CC(=O)NCCN2CCOCC2)C(=O)N1CCCN1CCCC1=O (stereo unspecified) do in these assays?
HNF4A DNA FP: -4.5

Results for CC(=O)c1cccc(-c2ccnc3c2CC(C(=O)Nc2cccc(Oc4ccccc4)c2)O3)c1 (stereo unspecified) ?
HNF4A DNA FP: -0.6

Results for COc1ccc(CNC(=O)c2[nH]c(C(F)(F)F)nc2-c2ccccc2)cc1 ?
HNF4A DNA FP: 10

Results for CC1(C(=O)NCc2cccc3ccccc23)CCN1Cc1cc2ccccc2o1 (stereo unspecified) ?
HNF4A DNA FP: 1.6

Results for O=C(O)CC1CC(O)CCC1=O (stereo unspecified) ?
HNF4A DNA FP: 2.7

What do the screens show for `COCCNC(=O)C1(C)CCN(C(=O)c2cc(C(C)(C)C)nn2C)C1` (stereo unspecified)?
HNF4A DNA FP: 0.7

What do the screens show for `COc1cc(NC(=O)Nc2nc(C(N)C(C)C)cs2)cc(OC)c1OC` (stereo unspecified)?
HNF4A DNA FP: 1.7

What do the screens show for `COc1ccc(Cc2c(-c3ccc(OC)c(OC)c3)nc3cc(C)c(Br)c(C)n23)c(C)c1`?
HNF4A DNA FP: 0.2

Results for O=C(NCc1ccc(F)cc1)c1cc(C2CCCCN2C(=O)c2cccs2)on1 (stereo unspecified) ?
HNF4A DNA FP: -0.1

Results for Cc1cc(C(=O)N2CCC2(C)C(=O)NS(=O)(=O)c2ccc(Cl)cc2)nn1C (stereo unspecified) ?
HNF4A DNA FP: 2.0

How did O=C(Nc1cccc(C(=O)O)c1)/C(=C\c1cccc([N+](=O)[O-])c1)NC(=O)c1ccc(Br)cc1 do in these assays?
HNF4A DNA FP: 3.0

What do the screens show for `Nc1ccn(C2C=CC(CO)O2)c(=O)n1` (stereo unspecified)?
HNF4A DNA FP: 1.2

Results for CC(C)CC1C(=O)N(Cc2cn(CCC3OCCCO3)nn2)CCS(=O)(=O)N1Cc1ccc(-c2ccncc2)cc1 (stereo unspecified) ?
HNF4A DNA FP: -2.4

What do the screens show for `COC(=O)[C@]12CCCCC=C1N(Cc1cccc3ccccc13)C(=O)[C@H](CC(=O)NCC13CC4CC(CC(C4)C1)C3)C2`?
HNF4A DNA FP: 0.1

How did O=C(CC[C@H]1O[C@@H](n2ccc(=O)[nH]c2=O)[C@H](O)[C@@H]1O)N[C@H](Cc1ccccc1)C(=O)NCC1CCCO1 (stereo partly specified) do in these assays?
HNF4A DNA FP: -1.1

Results for CCCCNC(=O)c1ccc2nc(CC)c(N(CC)CCOC)n2c1 ?
HNF4A DNA FP: 2.3

Results for C#CCn1c2ccccc2c(=O)n1CCOc1ccccc1OC ?
HNF4A DNA FP: 0.2

How did CC1(C(=O)NS(=O)(=O)c2ccccc2)CCN1C(=O)COc1ccc(Cl)cc1 (stereo unspecified) do in these assays?
HNF4A DNA FP: -4.9

What do the screens show for `C#Cc1ccc(NC(=O)C2(C)CCN2C(=O)Cc2ccc(C(C)(C)C)cc2)cc1` (stereo unspecified)?
HNF4A DNA FP: -2.5

Results for Cc1cc(Br)cn2c(Cc3ccccc3C(F)(F)F)c(-c3ccc(Cl)cc3)nc12 ?
HNF4A DNA FP: 3.4

What do the screens show for `O=C(Nc1ccccc1Cl)c1cc(C2CCCCN2S(=O)(=O)c2ccc(F)cc2F)on1` (stereo unspecified)?
HNF4A DNA FP: -0.8

How did CC1(C(=O)NCc2ccccc2)CN(S(C)(=O)=O)CC(=O)N1C1CCN(Cc2ccccc2)CC1 (stereo unspecified) do in these assays?
HNF4A DNA FP: -1.1

Results for O=c1c(-c2ccco2)nc2ccccc2n1C(CCc1ccccc1)c1nc2ccccc2[nH]1 (stereo unspecified) ?
HNF4A DNA FP: 32

Results for CCc1nc2ccc(C(=O)NCCCn3ccnc3)cn2c1N(C)C(=O)C1CCCCC1 ?
HNF4A DNA FP: 0.8

What do the screens show for `COC(=O)[C@@]1(Cc2ccc(F)cc2)[C@H]2c3cc(C(=O)N(C)C)n(Cc4ccc(Cl)c(C(F)(F)F)c4)c3C[C@H]2CN1C(=O)c1ccccc1`?
HNF4A DNA FP: 7.5

How did Nc1ncnc2c1ncn2[C@@H]1O[C@H](C(=O)NS(=O)(=O)c2ccccc2[N+](=O)[O-])[C@@H](O)[C@H]1O do in these assays?
HNF4A DNA FP: 0.9

What do the screens show for `Cc1cc(-c2ccc(F)cc2)n2ncc(-c3ccccc3)c2n1`?
HNF4A DNA FP: 2.3

Results for O=C(/C(=C/c1ccncc1)n1ccnc1)c1ccc(Cl)cc1Cl ?
Beta2AR agonist: 9; Vif A3G: 10%

What do the screens show for `CN(CC(=O)Nc1cc(C(F)(F)F)ccc1-n1cncn1)Cc1nc2ccccc2c(=O)[nH]1`?
Beta2AR agonist: -6; HNF4A DNA FP: 2.6

Results for CCc1ccc(N2CC(C(=O)OCC(=O)N(CC)c3c(N)n(Cc4ccccc4)c(=O)[nH]c3=O)CC2=O)cc1 (stereo unspecified) ?
Beta2AR agonist: 7; HNF4A DNA FP: 5.1

How did C[C@]12c3[nH]c4ccc(Cl)cc4c3CCN1C(=O)[C@@H](CC(=O)NCCN1CCOCC1)C[C@@H]2C(=O)N1CCCCC1 do in these assays?
Beta2AR agonist: -4; HNF4A DNA FP: -1.4

How did CCOc1cc(/C=C(\CC(=O)O)c2nc3ccccc3s2)ccc1OCC(=O)Nc1cccc(C(F)(F)F)c1 do in these assays?
Beta2AR agonist: 4; HNF4A DNA FP: 1.4

Four compounds from above, sorted by number of heavy atoms, rising:
Results for Cc1cc(C(=O)N2CCC2(C)C(=O)NS(=O)(=O)c2ccc(Cl)cc2)nn1C (stereo unspecified) ?
HNF4A DNA FP: 2.0

How did O=C(N[C@H]1CC[C@@H](CCNS(=O)(=O)c2ccccc2Cl)O[C@@H]1CO)c1ccccc1 do in these assays?
HNF4A DNA FP: -2.8

What do the screens show for `COc1ccc(Cc2c(-c3ccc(OC)c(OC)c3)nc3cc(C)c(Br)c(C)n23)c(C)c1`?
HNF4A DNA FP: 0.2

What do the screens show for `COC(=O)[C@@]1(Cc2ccc(F)cc2)[C@H]2c3cc(C(=O)N(C)C)n(Cc4ccc(Cl)c(C(F)(F)F)c4)c3C[C@H]2CN1C(=O)c1ccccc1`?
HNF4A DNA FP: 7.5

The listing continues.
What do the screens show for `C=CCN([C@H](C(=O)OC)C(C)C)S(=O)(=O)CCNCc1ccccc1`?
Beta2AR agonist: -1; HNF4A DNA FP: -2.6

Results for CN(CCc1ccccc1)C(=O)c1cccc(NC(=O)Cc2cccc(NC(=O)C3CCCN(C(=O)c4ccccc4)C3)c2)c1 (stereo unspecified) ?
Beta2AR agonist: 1; HNF4A DNA FP: 1.1

How did CC[C@]12C(=O)N(C)C[C@H]([C@@H]3C(=O)N(C)C(=O)[C@@H]31)N2C(=O)c1ccc(Br)cc1 do in these assays?
Beta2AR agonist: -2; HNF4A DNA FP: -0.4

Results for Cc1cc(OC(=O)c2ccc(S(=O)(=O)N3CCOCC3)cc2)c([N+](=O)[O-])c(=O)[nH]1 ?
Beta2AR agonist: 6; HNF4A DNA FP: -0.9

How did Cn1c(=O)[nH]c(=O)c2c1nc(N1CCN(C(=O)c3ccco3)CC1)n2CCCSc1ncccn1 do in these assays?
Beta2AR agonist: -4; HNF4A DNA FP: 0.8

How did O=[N+]([O-])c1cc([N+](=O)[O-])c(Oc2cccc3ccccc23)cc1NN1CCCCC1 do in these assays?
Beta2AR agonist: 6; HNF4A DNA FP: 2.7

How did NC(=O)C1(Nc2ccc(-c3ccccc3)cc2)CCCC1 do in these assays?
Beta2AR agonist: -1; HNF4A DNA FP: 2.1

What do the screens show for `CC(C)(C)OC(=O)N1CCCC(C(=O)Nc2ccc(C(=O)NCCc3ccccc3)cc2)C1` (stereo unspecified)?
Beta2AR agonist: 8; HNF4A DNA FP: -1.1

What do the screens show for `Cc1cc(C)cc(C(=O)OCC(=O)N2CCCCCC2)c1`?
Beta2AR agonist: 4; HNF4A DNA FP: 1.6

What do the screens show for `COc1ccccc1-c1cccc([C@@H]2C[C@H]3[C@H](CON3C)CN2C(=O)CCc2ccccc2)c1`?
Beta2AR agonist: -2; HNF4A DNA FP: -1.1

What do the screens show for `O=C(COC(=O)c1n[nH]c(=O)c2ccccc12)Nc1cccc(S(=O)(=O)N2CCOCC2)c1`?
Beta2AR agonist: -5; HNF4A DNA FP: 1.0

Results for COC(=O)CCCC(=O)OC ?
Beta2AR agonist: 0; HNF4A DNA FP: -2.2

How did C[C@H](CO)N1C[C@H](C)[C@@H](CN(C)C(=O)NC2CCCCC2)Oc2ccc(NC(=O)C3CC3)cc2C1=O do in these assays?
Beta2AR agonist: -3; HNF4A DNA FP: 0.7

What do the screens show for `Cc1cccc(NC(=O)c2cccc(S(=O)(=O)Nc3c(C)n(C)n(-c4ccccc4)c3=O)c2)c1`?
Beta2AR agonist: -3; HNF4A DNA FP: 2.2

How did CC(C)Oc1ccc(C(=O)NCC(=O)N2CCN(S(=O)(=O)/C=C/c3ccccc3)CC2)cc1 do in these assays?
Beta2AR agonist: -4; HNF4A DNA FP: -6.2

Results for CC(=O)NC12CC3CC(C1)CC(C(=O)N1CCN(S(=O)(=O)c4ccc([N+](=O)[O-])cc4)CC1)(C3)C2 ?
Beta2AR agonist: -12; HNF4A DNA FP: 0.7

Results for c1ccc(CN2CCOCC2)nc1 ?
Beta2AR agonist: -15; HNF4A DNA FP: 2.8

What do the screens show for `COc1ccc(/C=C2\SC(=S)N(CCCC(=O)N3CCN(C)CC3)C2=O)cc1OC`?
Beta2AR agonist: -8; HNF4A DNA FP: 1.1

What do the screens show for `O=C(/C=C/c1cccs1)c1ccco1`?
Beta2AR agonist: 14; HNF4A DNA FP: -8.4

Results for CC[C@]12c3[nH]c4ccc(OC)cc4c3CCN1C(=O)C(CC(=O)NCc1cccc(C(F)(F)F)c1)C[C@@H]2C(=O)N1CCN(C(=O)c2ccco2)CC1 (stereo partly specified) ?
Beta2AR agonist: -5; HNF4A DNA FP: -4.1

Results for COc1ccc(-c2cccc3c2NC(=O)C3=O)cc1OC ?
Beta2AR agonist: 1; HNF4A DNA FP: -4.8

How did O=C(Cn1cc(COc2c(F)c(F)c(Br)c(F)c2F)nn1)c1ccc(O)cc1 do in these assays?
Beta2AR agonist: -2; HNF4A DNA FP: -7.6

Results for CC(=O)NC12CC3CC(C1)CC(C(=O)Nc1ccc(C)c(S(=O)(=O)N4CCCCCC4)c1)(C3)C2 ?
Beta2AR agonist: 2; HNF4A DNA FP: -3.0

Results for CN(CC(=O)O)C(=O)c1ccccc1 ?
Beta2AR agonist: -5; HNF4A DNA FP: 4.5

How did c1ccc2cc3c(NCCN4CCOCC4)ccnc3cc2c1 do in these assays?
Beta2AR agonist: 4; HNF4A DNA FP: -1.6

What do the screens show for `COc1cccc(/C=N/Nc2ccc(S(=O)(=O)Nc3ccccc3C(=O)O)cc2[N+](=O)[O-])c1O`?
Beta2AR agonist: 11; HNF4A DNA FP: -4.2

How did O=C(COC(=O)Cc1ccsc1)Nc1ccc(Br)cc1 do in these assays?
Beta2AR agonist: -1; HNF4A DNA FP: 0.5
